NOMO-1 viab = STK33 inhibitor candidate reducing NOMO-1 cell viability | NOMO-1 AML viability, CellTiter-Glo luminescence, 72 h | inhibition, % (no concentration beside the values) | 7.5% of 37,000 active | AID 2330;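 active = most replicates above 80%; inconclusive = exactly half above 80%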;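 also: wells of about 30 µL received 25 nL stock; 0% = median of vehicle wells and 100% = reference inhibitor level; the first replicate is given; inactives centre near 10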
Starred values were filed as active, the others as inactive; ? = inconclusive. Not all compounds are listed, so the mix of outcomes need not match the whole.

SMILES	NOMO-1 viab
Cc1ccc(C(=O)c2ccc(C)c(C)c2)cc1C	50
O=C(O)CN(CC(=O)O)S(=O)(=O)c1ccc(Cl)cc1	1
c1ccc(-c2nnc(N3CCc4ccccc43)nc2-c2ccccc2)cc1	40
Cc1noc(C)c1NC(=O)Nc1ccc2c(c1)CC(=O)N([C@@H](C)CO)C[C@H](C)[C@@H](CN(C)S(=O)(=O)c1ccc(Cl)cc1)O2	1
C[C@H]1CN([C@@H](C)CO)C(=O)Cc2cc(N(C)C)ccc2O[C@@H]1CN(C)S(=O)(=O)c1cn(C)cn1	-7
CC[C@H](NS(=O)(=O)c1ccc(C)cc1)C(=O)Oc1cc2oc(=O)cc(C)c2cc1Cl	25
COC(=O)CN(c1ccccc1)S(=O)(=O)c1ccc(F)cc1	26
COc1ccc(CN(C)C[C@H]2Oc3ccc(NC(=O)c4ccncc4)cc3C(=O)N([C@H](C)CO)C[C@@H]2C)cc1	-10
CC(C)NC(=O)Nc1ccc2c(c1)C(=O)N([C@H](C)CO)C[C@H](C)[C@@H](CN(C)C(=O)Nc1ccccc1)OCCCC[C@@H](C)O2	19
Cc1cc(C)c(NC(=O)CN(c2cccc3ccccc23)S(C)(=O)=O)c(C)c1	10
C[C@@H]1CN([C@H](C)CO)C(=O)c2cccc(NC(=O)c3nc4ccccc4s3)c2O[C@@H]1CN(C)S(C)(=O)=O	10
CCc1nc2ccccc2n1CCC(=O)O	44
Cc1cc(C)c2c(c1)CC(C)(C)c1[nH]c(-c3ccccc3)nc1-2	55
COc1ccc(C(=O)CC2(O)C(=O)Nc3ccc(Cl)cc32)cc1OC (stereo unspecified)	25
C[C@H](CO)N1C[C@H](C)[C@@H](CN(C)CC2CCCCC2)Oc2c(NC(=O)C3CC3)cccc2C1=O	39
CC(C)NC(=O)Nc1cccc2c1O[C@@H](CN(C)S(=O)(=O)c1cn(C)cn1)[C@H](C)CN([C@H](C)CO)C2=O	-6
C[C@@H]1CCCCO[C@@H](CN(C)C(=O)NC2CCCCC2)[C@@H](C)CN([C@H](C)CO)C(=O)c2cc(NC(=O)c3ccncc3)ccc2O1	-4
Cc1noc(C)c1NC(=O)Nc1ccc2c(c1)CC(=O)N([C@H](C)CO)C[C@@H](C)[C@H](CN(C)C(=O)Nc1c(C)noc1C)O2	-13
Cc1cc([N+](=O)[O-])nn1CC(=O)Nc1cc(Cl)cc(Cl)c1	35
Cc1ccc(S(=O)(=O)Nc2ccc3c(c2)C(=O)N([C@H](C)CO)C[C@H](C)[C@H](CN(C)Cc2ccncc2)O3)cc1	20
COc1ccc(NC(=O)Nc2cccc3c2O[C@@H](CN(C)Cc2ccc4c(c2)OCO4)[C@H](C)CN([C@H](C)CO)C3=O)cc1	?
C[C@@H]1CN([C@@H](C)CO)C(=O)c2cc(NC(=O)Nc3cccc4ccccc34)ccc2O[C@H]1CN(C)S(=O)(=O)c1ccc(Cl)cc1	12
C[C@@H]1CN([C@H](C)CO)C(=O)Cc2cc(NC(=O)Nc3ccccc3)ccc2O[C@H]1CN(C)C	31
C[C@@H]1CN([C@H](C)CO)C(=O)Cc2cc(NC(=O)C3CC3)ccc2O[C@H]1CN(C)CC1CC1	-1
CC1(C)CC[C@]2(C(=O)O[C@@H]3O[C@H](CO)[C@@H](O)[C@H](O)[C@H]3O)CC[C@]3(C)C(=CCC4[C@@]5(C)C[C@@H](O)[C@H](O)[C@@](C)(CO)C5CC[C@]43C)C2C1 (stereo partly specified)	31
Cc1noc(C)c1S(=O)(=O)N(C)C[C@@H]1Oc2ccc(NS(=O)(=O)c3ccc(F)cc3)cc2C(=O)N([C@H](C)CO)C[C@@H]1C	7
C[C@H]1CN([C@@H](C)CO)C(=O)c2cccc(N(C)C)c2O[C@H]1CN(C)Cc1ccc(C(=O)Nc2ccccc2N)cc1	126*
CS(=O)(=O)N(CC(=O)Nc1ccccc1C(F)(F)F)c1ccc2c(c1)OCCO2	-5
O=C(CSc1nc2ccccc2c(=O)[nH]1)Nc1ccc(Br)cc1F	19
O=C(Nc1csnc1-c1c(Cl)cccc1Cl)NN1CCCCC1	13
CNC[C@@H]1Oc2ccc(NC(=O)CCCN(C)C)cc2C(=O)N([C@@H](C)CO)C[C@H]1C	13
COc1ccccc1NC(=O)Cn1nnc2sc3c(c2c1=O)CCC(C)C3 (stereo unspecified)	-25
C[C@H](CO)N1C[C@H](C)[C@H](CN(C)Cc2ccccc2)Oc2ccc(NC(=O)CCCN(C)C)cc2C1=O	23
CCOc1ccc(Nc2nc(CSc3nc4ccccc4c(=O)n3-c3ccccc3)cs2)cc1	15
CC1CC(=O)C2=C(C1)C(Cl)C(O)C1(O)C2C(=O)c2cccc(O)c2C1O (stereo unspecified)	101*
C[C@@H]1CN([C@@H](C)CO)C(=O)c2cc(NS(=O)(=O)c3ccc(F)cc3)ccc2O[C@@H]1CN(C)Cc1ccc(C(F)(F)F)cc1	?
Cc1cc(C(=O)CSc2ncn[nH]2)c(C)n1-c1cc(F)ccc1F	21
C[C@H]1CN([C@@H](C)CO)C(=O)c2cccc(NC(=O)Nc3ccc4c(c3)OCO4)c2O[C@H]1CN(C)Cc1ccncc1	18
C[C@H]1CN([C@@H](C)CO)C(=O)c2cc(NC(=O)Cn3cnnn3)ccc2O[C@H]1CN(C)S(=O)(=O)c1cn(C)cn1	4
NC(=O)N1CCc2ccccc21	36
COc1cc(NC(=O)Cc2cccc3ccccc23)c(C(=O)O)cc1OC	-19
CCOC(=O)c1ccccc1NC(=O)c1ccccc1N(C)S(C)(=O)=O	6
C[C@H](CO)N1C[C@H](C)[C@@H](CN(C)CC2CCCCC2)Oc2ccc(NC(=O)Cc3cn(C)c4ccccc34)cc2C1=O	-1
Cc1ccc(OCC(=O)Nc2ccc3oc(-c4ccc(F)cc4)nc3c2)c(C)c1	21
C[C@H]1CN([C@@H](C)CO)C(=O)Cc2cc(NC(=O)CCC(F)(F)F)ccc2O[C@@H]1CN(C)S(=O)(=O)c1ccccc1	9
CNC[C@H]1Oc2ccc(NC(=O)Nc3ccc(F)cc3)cc2CC(=O)N([C@@H](C)CO)C[C@@H]1C	7
COc1ccc(NC(=O)CCN2C(=O)c3ccccc3C2=O)c([N+](=O)[O-])c1	-27
C[C@@H]1CCCCO[C@H](CN(C)Cc2ccc(Cl)c(Cl)c2)[C@@H](C)CN([C@H](C)CO)C(=O)c2cc(NC(=O)c3ccncc3)ccc2O1	16
CNC[C@@H]1Oc2ccc(NS(=O)(=O)c3c(C)noc3C)cc2C(=O)N([C@@H](C)CO)C[C@H]1C	-21
Cc1cc(-c2ccc(N=Nc3cc(S(=O)(=O)O)c4ccccc4c3N)c(C)c2)ccc1N=Nc1cc(S(=O)(=O)O)c2ccccc2c1N	48
Cc1c(C)c(C)c(S(=O)(=O)NC(C)(C)C)c(C)c1C	38
C[C@H]1CN([C@@H](C)CO)C(=O)Cc2cc(NS(=O)(=O)c3cn(C)cn3)ccc2O[C@H]1CN(C)S(=O)(=O)c1ccc(F)cc1	-19
C[C@H](CO)N1C[C@H](C)[C@H](CN(C)C(=O)Nc2ccccc2)Oc2c(NS(=O)(=O)c3ccc(Cl)cc3)cccc2C1=O	45
CC1(C)NC(=O)N(CC(O)CNC23CC4CC(CC(C4)C2)C3)C1=O (stereo unspecified)	-19
C[C@H]1CN([C@@H](C)CO)C(=O)c2cccc(NC(=O)C3CCCCC3)c2O[C@H]1CN(C)C	5
COc1ccc(CN(C)C[C@@H]2Oc3c(NC(=O)c4ccc(-c5nccs5)cc4)cccc3C(=O)N([C@H](C)CO)C[C@@H]2C)cc1	53
C[C@@H]1CN([C@@H](C)CO)C(=O)c2cc(NC(=O)Nc3cccc4ccccc34)ccc2O[C@@H]1CN(C)Cc1ccncc1	-5
CC1Cc2ccccc2N1C(=O)c1cccc(C(=O)N2c3ccccc3CC2C)n1 (stereo unspecified)	25
C[C@H]1CN([C@@H](C)CO)C(=O)Cc2cc(NC(=O)Cc3cn(C)c4ccccc34)ccc2O[C@@H]1CN(C)Cc1ccc(C(F)(F)F)cc1	?
C[C@@H]1CN([C@H](C)CO)C(=O)Cc2cc(NC(=O)CCN3CCOCC3)ccc2O[C@H]1CN(C)C	14

7 of these compounds, reformatted:
| SMILES | NOMO-1 viab |
| --- | --- |
| C[C@H](CO)N1C[C@H](C)[C@H](CN(C)C(=O)Nc2ccccc2)Oc2c(NS(=O)(=O)c3ccc(Cl)cc3)cccc2C1=O | 45 |
| CC1(C)NC(=O)N(CC(O)CNC23CC4CC(CC(C4)C2)C3)C1=O (stereo unspecified) | -19 |
| C[C@H]1CN([C@@H](C)CO)C(=O)c2cccc(NC(=O)C3CCCCC3)c2O[C@H]1CN(C)C | 5 |
| COc1ccc(CN(C)C[C@@H]2Oc3c(NC(=O)c4ccc(-c5nccs5)cc4)cccc3C(=O)N([C@H](C)CO)C[C@@H]2C)cc1 | 53 |
| C[C@@H]1CN([C@@H](C)CO)C(=O)c2cc(NC(=O)Nc3cccc4ccccc34)ccc2O[C@@H]1CN(C)Cc1ccncc1 | -5 |
| CC1Cc2ccccc2N1C(=O)c1cccc(C(=O)N2c3ccccc3CC2C)n1 (stereo unspecified) | 25 |
| C[C@H]1CN([C@@H](C)CO)C(=O)Cc2cc(NC(=O)Cc3cn(C)c4ccccc34)ccc2O[C@@H]1CN(C)Cc1ccc(C(F)(F)F)cc1 | ? |

Two entries from above, as a markdown table.
| smiles | NOMO-1 viab |
| --- | --- |
| C[C@@H]1CN([C@@H](C)CO)C(=O)c2cc(NC(=O)Nc3cccc4ccccc34)ccc2O[C@@H]1CN(C)Cc1ccncc1 | -5 |
| COc1ccc(CN(C)C[C@@H]2Oc3c(NC(=O)c4ccc(-c5nccs5)cc4)cccc3C(=O)N([C@H](C)CO)C[C@@H]2C)cc1 | 53 |

Next records follow.
SMILES	NOMO-1 viab
C[C@H](CO)N1C[C@H](C)[C@@H](CN(C)Cc2ccc3c(c2)OCO3)Oc2ccc(NS(=O)(=O)c3ccccc3)cc2C1=O	24
C[C@@H]1CN([C@H](C)CO)C(=O)c2cccc(NC(=O)Nc3ccccc3)c2O[C@H]1CN(C)CC1CCCCC1	79
C[C@H]1CN([C@@H](C)CO)C(=O)c2cc(NC(=O)Nc3ccc(C(F)(F)F)cc3)ccc2O[C@H]1CN(C)C(=O)NC1CCCCC1	103*
Cc1cc(CNC(=S)Nc2cccc([N+](=O)[O-])c2)nn1C	47
CC(C)N(Cc1nc(-c2ccccc2Cl)no1)S(=O)(=O)c1ccc([N+](=O)[O-])cc1	12
C[C@H]1CN([C@@H](C)CO)C(=O)Cc2cc(NS(=O)(=O)c3ccccc3)ccc2O[C@@H]1CN(C)C(=O)NC1CCCCC1	0
Cc1noc(C)c1NC(=O)N(C)C[C@@H]1Oc2ccc(NS(=O)(=O)c3ccccc3)cc2C(=O)N([C@@H](C)CO)C[C@H]1C	21
Cc1ccc(S(=O)(=O)NCC(=O)O)c(C)c1	17
CC(C)n1c(=S)[nH]c2cc(C(F)(F)F)ccc21	3
C[C@H]1CN([C@@H](C)CO)C(=O)c2cccc(NC(=O)C3CCCCC3)c2O[C@@H]1CN(C)S(=O)(=O)c1cn(C)cn1	7
COc1ccc(C(=O)Nc2ccccc2C(=O)NCc2cccnc2)cc1	33
C[C@H](CO)N1C[C@H](C)[C@@H](CN(C)Cc2ccc(C(=O)Nc3ccccc3N)cc2)Oc2ccc(NC(=O)Nc3ccc(F)cc3)cc2C1=O	31
COc1ccc(CN(C)C[C@H]2Oc3ccc(NC(=O)Nc4ccc(OC)cc4)cc3C(=O)N([C@H](C)CO)C[C@H]2C)cc1	-5
C[C@H](CO)N1C[C@H](C)[C@@H](CN(C)S(=O)(=O)c2ccc(Cl)cc2)Oc2c(NC(=O)C3CCCCC3)cccc2C1=O	33
CCOC(=O)c1ccc(COC(=O)c2cc3ccccc3oc2=O)o1	5
C[C@H](CO)N1C[C@H](C)[C@H](CN(C)Cc2ccccc2)Oc2ccc(NS(C)(=O)=O)cc2CC1=O	25
CCOC(=O)c1c(NC(=O)C2(C)Cc3ccccc3C(=O)O2)sc(C)c1C (stereo unspecified)	37
CC(Oc1ccc(Cl)cc1Cl)C(=O)NC(=S)Nc1sc2c(c1C#N)CCCC2 (stereo unspecified)	42
C[C@H]1CN([C@@H](C)CO)C(=O)c2cc(NS(=O)(=O)c3ccc(F)cc3)ccc2O[C@@H]1CN(C)C(=O)NC1CCCCC1	0
Cn1nnc(NC(=O)CSc2nnnn2-c2ccc(F)cc2)n1	-4

A draw from above in order of molecular weight, lowest first.
SMILES	NOMO-1 viab
C[C@H](CO)N1C[C@H](C)[C@H](CN(C)Cc2ccccc2)Oc2ccc(NS(C)(=O)=O)cc2CC1=O	25
C[C@H]1CN([C@@H](C)CO)C(=O)c2cc(NS(=O)(=O)c3ccc(F)cc3)ccc2O[C@@H]1CN(C)C(=O)NC1CCCCC1	0
C[C@H]1CN([C@@H](C)CO)C(=O)c2cc(NC(=O)Nc3ccc(C(F)(F)F)cc3)ccc2O[C@H]1CN(C)C(=O)NC1CCCCC1	103*

Other structures follow:
SMILES	NOMO-1 viab
COc1ccc(CN(C)C[C@H]2Oc3c(NS(=O)(=O)c4ccc(F)cc4)cccc3C(=O)N([C@H](C)CO)C[C@H]2C)cc1	21
C[C@H]1CN([C@@H](C)CO)C(=O)c2cc(NC(=O)CCCCCC(=O)Nc3ccccc3N)ccc2O[C@@H]1CN(C)CC1CCCCC1	40
C[C@@H]1CN([C@H](C)CO)C(=O)c2cccc(NS(=O)(=O)c3cccs3)c2O[C@@H]1CN(C)C(=O)Nc1ccc(F)cc1	10
Cc1noc(C)c1S(=O)(=O)N(C)C[C@H]1Oc2ccc(NS(=O)(=O)c3ccc(F)cc3)cc2C(=O)N([C@@H](C)CO)C[C@H]1C	16
C[C@@H]1CCCCO[C@H](CN(C)Cc2ccncc2)[C@@H](C)CN([C@H](C)CO)C(=O)c2cc(NS(=O)(=O)c3ccc(Cl)cc3)ccc2O1	19
Cc1ccc(S(=O)(=O)Nc2ccc3c(c2)C(=O)N([C@H](C)CO)C[C@H](C)[C@H](CN(C)C(=O)Nc2c(C)noc2C)OCCCC[C@@H](C)O3)cc1	16
O=C(COc1ccc(S(=O)(=O)N2CCOCC2)cc1)Nc1ccc2c(c1)OCCO2	12
CCCn1c(SCC(=O)N2CCOCC2)nnc1-c1ccncc1	17
CCCCOc1cc(CC2CNC(=O)N2)ccc1OC (stereo unspecified)	-5
CC(C)NC(=O)Nc1ccc2c(c1)CC(=O)N([C@H](C)CO)C[C@@H](C)[C@@H](CN(C)Cc1ccccc1)O2	14

Bioassay records as filed in PubChem.
